Vaccinia Venus – vaccinia inhibition (Venus reporter). Vaccinia virus Venus reporter expression, fluorescence. Potency, µM (titrated, usually from 36.5 µM), for inactives: at the top dose activity change, negative = inhibition, actives largely listed as inhibitors. 330,000 compounds, 0.46% hits; active means well fitted inhibition curve with a large enough effect; inconclusive means small, poorly fitted or top-dose-only effect; inactive means no such curve, though single readings can be large or run the other way; tested in A549 cells; also: nearly all actives have a fitted effect of over 30% in size; inactives centre near -10
Vaccinia mCherry – vaccinia inhibition (mCherry reporter). Vaccinia virus mCherry reporter infection, fluorescence; about a quarter of the inactives have no number. Potency, µM (series often up to 36.5 µM), for inactives: top-dose activity change, negative = inhibition, hits mostly inhibitors. 310,000 compounds, 0.63% hits; active = well fitted inhibition curve with a large enough effect; inconclusive = small, poorly fitted or top-dose-only effect; inactive = no such curve, though single readings can be large or run the other way; tested in A549 cells; also: nearly all actives have a fitted effect of over 35% in size; inactives centre near -10
* hit, by the source's call; i = inactive; ? = inconclusive; . = no result given; [ ] = dose if it differs, or a comment. % is scaled to controls: 0 for no effect and ±100 for the full control effect; potency is read from the fitted curve at half-maximal effect. Compounds as they come; overall some 0.88% were active at least once.

SMILES	Vaccinia Venus	Vaccinia mCherry
CC(C)(C)c1ccc(C2=NC(=O)C(CC(=O)O)S2)cc1 (centres undefined)	-5%	i
O=C1NC(Cc2ccc(O)cc2)c2nc3cc(F)c(F)cc3c(=O)n2-c2ncccc21 (centres undefined)	-6%	-5%
O=C(NCCN1CCOCC1)c1cccc(Br)c1	-16%	i
Cc1ccc(C)c(NC(=O)CCCn2nc(C)c3sc4ccccc4c3c2=O)c1	2%	-10%
CCCCCC/C(C)=C1/SC(=S)NC1=O	-2%	-23%
CCCCCCCCCCCCC(C(=O)O)C(C)C(=O)O (centres undefined)	-25%	-9%
O=C(NC1CCCCC1)C(=S)N1CCCC1	-9%	i
CC(=O)Oc1ccc(C23c4ccccc4C2(OC(C)=O)c2cc(OC(C)=O)ccc23)cc1 (centres undefined)	24%	-17%
Clc1ccccc1OCCn1nnc2ccccc21	-10%	i
Cc1nc(N2CCCC2)c2c(C(=O)N3CCN(c4ccccc4)CC3)c(C)oc2n1	-8%	i
Cc1ccc(C2CC(=O)C(C=NCCN3CCN(CC(=O)Nc4cc(C)cc(C)c4)CC3)=C(O)C2)cc1 (centres undefined)	-3%	-24%
N#Cc1ccc(/C=C/C(=O)c2ccc3c(c2)OCO3)cc1	-21%	-11%
CCCCNC(=O)C1CCCNC1=O (centres undefined)	-5%	i
Clc1ccc(-c2nc3ccc(Br)cn3c2Cc2ccccc2)cc1	-3%	6%
CC(Cc1cccs1)NC(=O)CCCn1nnnc1CN1CCOCC1 (centres undefined)	-10%	i

Part of the list above, with bars between the fields:
SMILES | Vaccinia Venus | Vaccinia mCherry
CC(C)(C)c1ccc(C2=NC(=O)C(CC(=O)O)S2)cc1 (centres undefined) | -5% | i
O=C1NC(Cc2ccc(O)cc2)c2nc3cc(F)c(F)cc3c(=O)n2-c2ncccc21 (centres undefined) | -6% | -5%
O=C(NCCN1CCOCC1)c1cccc(Br)c1 | -16% | i
Cc1ccc(C)c(NC(=O)CCCn2nc(C)c3sc4ccccc4c3c2=O)c1 | 2% | -10%
CCCCCC/C(C)=C1/SC(=S)NC1=O | -2% | -23%
CCCCCCCCCCCCC(C(=O)O)C(C)C(=O)O (centres undefined) | -25% | -9%
O=C(NC1CCCCC1)C(=S)N1CCCC1 | -9% | i
CC(=O)Oc1ccc(C23c4ccccc4C2(OC(C)=O)c2cc(OC(C)=O)ccc23)cc1 (centres undefined) | 24% | -17%
Clc1ccccc1OCCn1nnc2ccccc21 | -10% | i
Cc1nc(N2CCCC2)c2c(C(=O)N3CCN(c4ccccc4)CC3)c(C)oc2n1 | -8% | i
Cc1ccc(C2CC(=O)C(C=NCCN3CCN(CC(=O)Nc4cc(C)cc(C)c4)CC3)=C(O)C2)cc1 (centres undefined) | -3% | -24%
N#Cc1ccc(/C=C/C(=O)c2ccc3c(c2)OCO3)cc1 | -21% | -11%
CCCCNC(=O)C1CCCNC1=O (centres undefined) | -5% | i
Clc1ccc(-c2nc3ccc(Br)cn3c2Cc2ccccc2)cc1 | -3% | 6%

Carrying on.
SMILES	Vaccinia Venus	Vaccinia mCherry
COC(=O)[C@]12CCCCC=C1N(Cc1ccc(Cl)cc1Cl)C(=O)[C@H](CC(=O)NCCc1ccccc1OC)C2	-4%	14%
CCCCNc1nc2c(S(=O)(=O)c3ccc(C)c(C)c3)nnn2c2ccsc12	-22%	-13%
O=[N+]([O-])c1ccc(/C=N/N=C/c2ccc([N+](=O)[O-])o2)o1	-9%	-4%
CC(C)(C)CNC(=O)C1(C)CCN1C(=O)Cc1ccc(-c2ccccc2)cc1 (centres undefined)	-10%	10%
CC1=C(C(=O)N2CCOCC2)CC(CC(=O)NCCc2ccccn2)C(=O)N1Cc1ccccc1 (centres undefined)	-10%	36%[activator]
CN(C)c1ccc(-c2ccnc3c2CC(C)(C(=O)NCc2ccc(F)c(F)c2)O3)cc1 (centres undefined)	-17%	-6%
Cc1cc(C(=O)Nc2cccc3ccccc23)co1	-16%	-28%
O=c1cc(O)c(-c2ccccc2Cl)c(Cl)[nH]1	-9%	-1%
O=C(CCCN1C(=O)c2ccccc2C1=O)Nc1nc2ccccc2[nH]1	-5%	8%
Nc1cccc2cnccc12	-21%	-1%
Cc1ccc(C)c(N2C(=O)CC(N3CCN(Cc4ccc5c(c4)OCO5)CC3)C2=O)c1 (centres undefined)	-6%	-5%
CCOc1ccc(-n2c(SCC(=O)c3c(N)n(C)c(=O)n(C)c3=O)nnc2-c2cccnc2)cc1	2%	-2%
CC(C(=O)N/N=C/c1ccc(N(C)C)c(Br)c1)N(c1ccccc1)S(C)(=O)=O (centres undefined)	-26%	.
Cc1ccc(S(=O)(=O)N/N=C2/CC(c3ccccc3)Oc3ccccc32)cc1 (centres undefined)	-24%	-28%
CC(C)(C)N1CSC(=S)N(Cc2ccccc2)C1	2%	-11%
Cc1cc(Cl)ccc1NC(=S)N1CCC(C(N)=O)(N2CCCCC2)CC1	-7%	-3%
COC(=O)c1ccccc1NC(=S)NC(=O)COc1ccccc1	-12%	.
O=C(Nc1cccc(S(=O)(=O)Nc2ccc(Cl)cc2)c1)c1ccc2c(c1)OCCO2	?	-3%
CC1=C(C(=O)N2CCCCCC2)CC(CC(=O)NC(c2ccccc2)c2ccccc2)C(=O)N1Cc1ccccc1 (centres undefined)	-18%	9%
O=C1NC[C@@H](CCCCN2C[C@H](Cc3ccc(O)cc3)N(CCc3ccccc3)C(=O)C2=O)N(Cc2ccccc2)C1=O	8%	6%
Nc1nnc(CC(=O)N/N=C\c2cc([N+](=O)[O-])ccc2O)s1	-7%	i
O=C(NCc1nnc(SCC(=O)N2CCCC2)o1)c1cccc(C(F)(F)F)c1	-6%	-13%
CN(C)c1ccc(CNC23CN4CN(CN(C4)C2)C3)cc1	5%	6%
O=C(NCCc1ccc(C(F)(F)F)cc1)C1COc2ccccc2O1 (centres undefined)	-11%	-7%
O=C(NCCCO)C(=O)NCc1ccccn1	1%	2%
COc1ccc(CNC(=O)c2cc3cccc4c3n2CC(C)S4)cc1OC (centres undefined)	-6%	-14%
Cc1cc2nc3n(c2cc1C)CC1CC(C(=O)NCc2cccc(C(F)(F)F)c2)N(C)C31 (centres undefined)	-13%	i
O=C(/C=C/c1ccc(S(=O)(=O)N2CCOCC2)cc1)Nc1cc(F)ccc1F	-11%	-10%
COc1ccc(-c2nnnn2C(C)C)cc1S(=O)(=O)Nc1ccccc1	-8%	-9%
O=Nc1c(-c2ccccc2)n(O)[n+]([O-])c1-c1ccccc1	11µM*	?
O=C(CCC(=O)N1CCOCC1)Nc1ccc(Cl)c(Cl)c1	-1%	i
CC(NC(=O)/C=C/c1ccccc1)c1ccccc1 (centres undefined)	-9%	i
O=C(Nc1nnc(COc2ccc(Br)cc2)s1)c1ccco1	-29%[7.34 µM]	3%[7.34 µM]
CSc1nccc(N2CCN(c3ccc(F)cc3)CC2)n1	-17%	?
CC(C)(C)c1cc(OS(C)(=O)=O)ccc1O	-18%	-8%
COc1ccc(CCNC(=O)COC(=O)Cc2ccccc2)cc1	-11%	i
O=C(CCCn1c(SCC(=O)NC2CCCCC2)nc2ccccc2c1=O)NCC1CCCO1 (centres undefined)	-4%	-12%
COc1ccccc1CNC(=O)CCCn1c(=O)c2ccccc2n(Cc2ccccc2F)c1=O	-15%	-20%
O=C(NCC(=O)N1CCN(S(=O)(=O)c2ccccc2C(F)(F)F)CC1)c1sc2ccccc2c1Cl	-4%	-14%
CCOc1ccc(CC2S/C(=N/c3ccccn3)NC2=O)cc1 (centres undefined)	-2%	i
CCOC(=O)N1CCN(c2ccc3nnnn3n2)CC1	-8%	.
CC1=CC2=NC(=O)C(c3ccccc3)C(=O)N2C=C1 (centres undefined)	0%	-22%
C=CCOC(=O)C(=O)/C=C/c1csc2ccccc12	-10%	-4%
O=C(NCc1cccnc1)c1cc(Sc2ccccc2Cl)nc2ccccc12	-16%	-19%
CC(=O)c1ccc(-n2c(-c3cc(-c4ccco4)[nH]n3)n[nH]c2=S)cc1	-6%	.
Cc1cc(C(=O)CSC(C)c2nc3ccccc3c(=O)[nH]2)c(C)n1C (centres undefined)	-2%	-11%
CCc1nc2ccc(C(=O)NCCCn3ccnc3)cn2c1N(C)Cc1ccc(Cl)cc1	-3%	5%
C/C(=N\N1CCCCC1)c1c(O)[nH]c(=O)[nH]c1=O	-4%	-4%
Cc1ccc(NC(=O)Nc2ccccc2)c(Br)c1	-22%	-3%
CCOc1ccc(C2=NC(c3ccncc3)=Nc3ccc(C)cc3N2)cc1OCC	-12%	-3%
CCSC1=C(C#N)C(c2cccs2)C(C(=O)OC)=C(C)N1 (centres undefined)	-18%	-16%
CCOc1ccc(-c2cc(C)[n+](CCN3CCOCC3)c(-c3ccc(OCC)cc3)c2)cc1	-2%	-25%
CCC(Sc1nc2n[nH]c(C)c2c(=N)n1-c1cccc(Cl)c1)C(=O)NCCOC (centres undefined)	?	.
CCOc1ccc(-n2c(SCc3ccc(C(=O)OC)o3)nc3c([nH]c4ccccc43)c2=O)cc1	-5%	-20%
Cn1nc(C2CC2)cc1NC(=O)CC(CC(=O)O)c1ccccc1 (centres undefined)	-5%	i
COC(=O)C(Sc1nc(C)cc(C)c1C#N)c1ccccc1 (centres undefined)	-8%	-14%
CC(=O)NCCOc1nc(N2CCCCC2)nc(N2CCCCC2)n1	-5%	-21%
CC(C)Oc1ccc(S(=O)(=O)N2CCCCC2)cc1NC(=O)C1=COCCO1	-21%	?
S=C(Nc1cccnc1)NC1CCCCCCC1	-14%	-2%
COc1ccc(OC)c(S(=O)(=O)N2CCN(CC(O)COc3ccc(C#N)cc3)CC2)c1 (centres undefined)	?	-14%

Reformatted field by field: entries from further up.
Structure: CC(C)(C)N1CSC(=S)N(Cc2ccccc2)C1
  Vaccinia Venus = 2%
  Vaccinia mCherry = -11%

Structure: Cc1cc(Cl)ccc1NC(=S)N1CCC(C(N)=O)(N2CCCCC2)CC1
  Vaccinia Venus = -7%
  Vaccinia mCherry = -3%

(continued)
SMILES	Vaccinia Venus	Vaccinia mCherry
Cc1ccc(S(=O)(=O)N2CCOCC2)cc1C(=O)N1CCc2ccccc21	-9%	i
CN(CC(=O)OCC(=O)NCc1ccccc1)S(=O)(=O)c1ccc(Cl)cc1	-4%	-10%
Cc1cc(C)nc(NC(=S)Nc2ccccc2)n1	-1%	i
O=C(Nc1ccc(S(=O)(=O)N2CCCC2)cc1)c1ccc(CN2CCOCC2)cc1	-17%	-27%
COC(=O)COc1ccc(S(=O)(=O)NCCC2=CCCCC2)cc1	-9%	i
Cc1c(Cc2ccccc2)sc(NC(=O)/C=C/c2cccc3ccccc23)c1C(N)=O	-20%	-11%
Cn1c(=O)c2c(SCCN3CCOCC3)nc(C3CCCC3)nc2n(C)c1=O	-7%	i
O=C(NC1CCCCC1)c1ccc2c(c1)N(Cc1ccc(F)cc1)C(=O)c1ccccc1S2(=O)=O	-6%	-1%
CCn1nnc2cc(C(=O)Nc3ccc(C)c(Cl)c3)ccc21	0%	-5%
Cc1ccc(C(=O)C[n+]2cc(Br)cc(Br)c2)cc1	-10%	-10%
COc1ccc(NC(=O)CNc2ccccc2N2CCCC2=O)cc1S(=O)(=O)N1CCOCC1	1%	i
CC(C)CNC(=O)c1cccc(NC(=O)c2ccco2)c1	-12%	-20%
COc1cccc(C(=O)Nc2ccc3c(c2)C(=O)NC3=O)c1	-14%	-26%
O=C1CNC(=S)N1Cc1cccc(Cl)c1	23%	i
COc1ccc(C(N)=O)cc1NC(=O)c1cccc(F)c1	-2%	.
O=C1N2CCCCC1(c1ccccc1)CCCC2	-1%	5%
CCc1nnc(NC(=O)c2ccc(COc3cccc(C)c3)o2)s1	-12%	-11%
COc1cc2sc(-c3ccc(S(C)(=O)=O)cc3)c(C(=O)NCCCCO)c2cc1OC	-6%	-4%
COC(=O)c1nccnc1C(=O)Nc1ccccc1N1CCOCC1	4%	-9%
Cc1ccsc1C(=O)OCC(=O)Nc1cccc(S(=O)(=O)N2CCCCC2)c1	-13%	?
O=C(Cc1cccs1)N/N=C/c1ccccn1	-12%	-1%
CN(C)c1ccc(CCN2CCOCC2)cc1	-5%	-5%
CC(OC(=O)c1cccs1)C(=O)Nc1nc(-c2ccccc2)cs1 (centres undefined)	-2%	-14%
O=C(Cc1ccccc1)Nc1ccc(F)cc1	-13%	i
COc1cccc(CNC(=O)CC2C(=O)NCCN2Cc2ccoc2)c1OC (centres undefined)	-13%	i
Cc1c(Cl)cccc1N1CCn2c1nc1c2c(=O)n(CC(=O)O)c(=O)n1C	-7%	-5%
CCN(C(=O)CSc1nnc(COc2cccc(C)c2)o1)c1nc(C)cs1	8%	-11%
CCOCCn1c(CN2CCCC(C)C2)nc2c1c(=O)n(C)c(=O)n2C (centres undefined)	-4%	-12%
CC(=O)c1ccc(NC(=O)CCC(=O)OCC(=O)c2cccc([N+](=O)[O-])c2)cc1	-6%	0%
CC(C)N(c1ccc(C=O)cc1)C(C)C	-9%	-15%
COc1ccc(C2CC(=O)Oc3c2c(=O)oc2ccccc32)c(OC)c1OC (centres undefined)	-20%	-18%
CCOC(=O)[C@]12CCC=C1N(CCC1=CCCCC1)C(=O)[C@H](CC(=O)NCc1ccccc1)C2	-9%	i
COc1ccc(OC)c(CN2CCCC(C(=O)c3ccccc3SC)C2)c1 (centres undefined)	9%	-21%
CCc1cc2c(=O)n(CCC(C)C)c(=S)[nH]c2s1	-14%	i
COc1ccc(CCNC(=O)CSc2nnc3ccc(-c4ccccn4)nn23)cc1	-28%	-3%
CC1(Oc2ccc(CC#N)cc2)CCN(Cc2ccc(-n3ccnc3)cc2)C1 (centres undefined)	-4%	-11%
COCCOC(=O)C(CC(=O)O)NCc1ccco1 (centres undefined)	-2%	-8%
CC(C)(C)c1ccc(C(=O)NCCOc2ccccc2F)cc1	-19%	-12%
O=C(Nc1cn(-c2ccccc2)nc1-c1ccc(F)cc1)c1ccccc1	-22%	-5%

Assay outcomes: PubChem, National Center for Advancing Translational Sciences (NCATS)
